# Assay outcomes (PubChem)
# Vaccinia inh – blocks a specific stage of Vaccinia orthopoxvirus infection | Vaccinia-infected cells, mCherry/Venus stage reporter fluorescence; stronger effect = lower value; some inactives read as strong as hits | activity change (mCherry), % (no concentration beside the values) | actives 0.01% (n = 89,000);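 active = mCherry past -33% and 40 or more points under the early reporter, replicates agreeing; inconclusive = past -33% without that gap or agreement; tested in A549 cells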;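 also: scaled between vehicle wells and reference inhibitor wells; 23 nL library stock went into each well; one replicate is shown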
# Vaccinia inh Venus – also measured in Vaccinia inh; calls as there; activity change (Venus), %; measured here: Venus reporter, other viral stage;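 negative = less Venus signal; first of two replicates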
# * marks the source's active call; other numbers are inactive results; ? = inconclusive; nt = no result given. Not all compounds are listed. The share of hits here may be higher or lower than overall.
SMILES,Vaccinia inh,Vaccinia inh Venus
COc1ccc2c3c([nH]c2c1)[C@H](CO)N(C(=O)CN(C)C)CC31CCN(CC2CCOCC2)CC1,11,18
CCCNC(=O)N(C)C[C@@H]1Oc2cc(-c3ccccc3)ccc2S(=O)(=O)N([C@H](C)CO)C[C@@H]1C,1,0
C[C@H]1CN([C@@H](C)CO)C(=O)Cc2cc(NC(=O)NC3CCCCC3)ccc2O[C@@H]1CN(C)S(=O)(=O)c1cn(C)cn1,8,4
COC(=O)C[C@H]1CC[C@H]2[C@@H](COc3ccc(NC(=O)Nc4cccc(F)c4)cc3C(=O)N2C)O1,8,8
CO[C@@H]1CN(C)C(=O)c2cc(NS(C)(=O)=O)ccc2OC[C@H](C)N(C(=O)c2ccc3c(c2)OCO3)C[C@@H]1C,20,16
C[C@@H]1CN([C@H](C)CO)S(=O)(=O)c2ccc(C#CC3CCCCC3)cc2O[C@H]1CN(C)C,?,nt
CN(C[C@H]1N[C@@H](CO)[C@@H]1c1ccc(C2=CCCC2)cc1)C(=O)c1cccc(F)c1,2,6
Cc1ccc(-c2ccc3c(c2)O[C@@H](CN(C)C(=O)Nc2ccc(C(F)(F)F)cc2)[C@@H](C)CN([C@H](C)CO)S3(=O)=O)cc1,-26,-30
CCCNC(=O)[C@H]1[C@H](CO)[C@H]2Cn3c(cccc3=O)[C@@H]1N2S(=O)(=O)c1ccccc1F,15,3
COCCN(C[C@H]1[C@H](c2ccccc2)[C@@H](CO)N1C(C)=O)C(=O)c1ccncc1,15,11
C[C@H](CO)N1C[C@H](C)[C@H](CN(C)Cc2ccncc2)Oc2c(NS(=O)(=O)c3cccs3)cccc2C1=O,18,6
C[C@@H]1CN([C@H](C)CO)C(=O)Cc2cc(NC(=O)Nc3ccccc3)ccc2O[C@@H]1CN(C)Cc1ccc(Cl)c(Cl)c1,?,nt
C[C@@H]1CN([C@H](C)CO)C(=O)c2cc(NC(=O)Nc3ccc(C(F)(F)F)cc3)ccc2O[C@@H](C)CCCCO[C@@H]1CN(C)C(=O)C1CCCCC1,-20,-10
CCCC#Cc1ccc2c(c1)O[C@H](CN(C)Cc1ccc3c(c1)OCO3)[C@@H](C)CN([C@@H](C)CO)S2(=O)=O,?,nt
C[C@H](CO)N1C[C@H](C)[C@H](CN(C)S(C)(=O)=O)Oc2c(NC(=O)c3nc4ccccc4s3)cccc2C1=O,4,16
COc1ccc(NC(=O)N(C)C[C@@H]2Oc3ccc(NC(=O)Cn4cnnn4)cc3C(=O)N([C@@H](C)CO)C[C@@H]2C)cc1,-9,-8
C[C@H]1CN([C@@H](C)CO)C(=O)c2cc(C#CCN(C)C)cnc2O[C@@H]1CN(C)Cc1cccc(C(=O)O)c1,5,6
O=C(C[C@@H]1CC[C@@H]2[C@H](COC[C@H](O)CN2S(=O)(=O)c2cccc(Cl)c2)O1)NCc1ccncn1,10,7
C[C@@H]1CN([C@@H](C)CO)C(=O)c2cccc(NC(=O)CCCCCC(=O)Nc3ccccc3N)c2O[C@H]1CN(C)C(=O)NC1CCCCC1,24,6
CO[C@@H]1CN(C)C(=O)c2cc(NC(=O)c3cc(C)on3)ccc2OC[C@H](C)N(C(C)=O)C[C@H]1C,3,5
COc1cccc(CNC(=O)[C@H]2[C@H](CO)[C@H]3Cn4c(ccc(-c5ccncc5)c4=O)[C@H]3N2C)c1,7,14
C[C@H](CO)N1C[C@H](C)[C@@H](CN(C)CC2CC2)Oc2ccc(NS(=O)(=O)c3cccs3)cc2C1=O,-1,-1
COc1cccc(-c2cnc3c(c2)C(=O)N([C@H](C)CO)C[C@H](C)[C@@H](CN(C)Cc2ccc(C(=O)O)cc2)O3)c1,13,13
Cc1cc(C(=O)Nc2cccc3c2O[C@H](CN(C)C(=O)Nc2ccc(F)cc2)[C@@H](C)CN([C@@H](C)CO)C3=O)n(C)n1,9,2
CN(C)CCCNC(=O)C[C@H]1CC[C@@H]2[C@H](COc3ccc(NC(=O)C4CCC4)cc3C(=O)N2C)O1,7,3
CCCNC(=O)Nc1ccc2c(c1)OC[C@H](C)N(C(=O)CC)C[C@H](C)[C@H](OC)CN(C)C2=O,4,6
C[C@H](CO)N1C[C@H](C)[C@H](CN(C)S(=O)(=O)c2cn(C)cn2)Oc2ccc(NC(=O)Cc3cn(C)c4ccccc34)cc2C1=O,-7,-5
COc1ccc(-c2cnc3c(c2)C(=O)N([C@H](C)CO)C[C@H](C)[C@H](CN(C)C(=O)Nc2ccccc2)O3)cc1,-4,-6
Cc1noc(C)c1NC(=O)N(C)C[C@H]1Oc2ccc(NS(=O)(=O)c3cccs3)cc2C(=O)N([C@H](C)CO)C[C@@H]1C,14,-3
C[C@@H]1CN([C@@H](C)CO)C(=O)c2cc(NC(=O)c3ccccc3)ccc2O[C@@H](C)CCCCO[C@H]1CN(C)Cc1ccncc1,3,6

# Reformatted: entries from further up
COc1ccc(NC(=O)N(C)C[C@@H]2Oc3ccc(NC(=O)Cn4cnnn4)cc3C(=O)N([C@@H](C)CO)C[C@@H]2C)cc1
  Vaccinia inh = -9	Vaccinia inh Venus = -8

C[C@H]1CN([C@@H](C)CO)C(=O)c2cc(C#CCN(C)C)cnc2O[C@@H]1CN(C)Cc1cccc(C(=O)O)c1
  Vaccinia inh = 5	Vaccinia inh Venus = 6

O=C(C[C@@H]1CC[C@@H]2[C@H](COC[C@H](O)CN2S(=O)(=O)c2cccc(Cl)c2)O1)NCc1ccncn1
  Vaccinia inh = 10	Vaccinia inh Venus = 7

C[C@@H]1CN([C@@H](C)CO)C(=O)c2cccc(NC(=O)CCCCCC(=O)Nc3ccccc3N)c2O[C@H]1CN(C)C(=O)NC1CCCCC1
  Vaccinia inh = 24	Vaccinia inh Venus = 6

# Single records, as listed above. Order of screens: Vaccinia inh | Vaccinia inh Venus
# Results for `COc1ccc(-c2cnc3c(c2)C(=O)N([C@H](C)CO)C[C@H](C)[C@H](CN(C)C(=O)Nc2ccccc2)O3)cc1` → -4 | -6
# Results for `COCCN(C[C@H]1[C@H](c2ccccc2)[C@@H](CO)N1C(C)=O)C(=O)c1ccncc1` → 15 | 11
# Results for `C[C@H](CO)N1C[C@H](C)[C@H](CN(C)S(=O)(=O)c2cn(C)cn2)Oc2ccc(NC(=O)Cc3cn(C)c4ccccc34)cc2C1=O` → -7 | -5

# (more compounds)
SMILES,Vaccinia inh,Vaccinia inh Venus
CC(C)NC(=O)Nc1ccc2c(c1)C(=O)N([C@@H](C)CO)C[C@@H](C)[C@@H](CN(C)C(=O)C1CCCCC1)OCCCC[C@@H](C)O2,0,2
N#C[C@@H]1[C@@H](c2ccc(C#Cc3ccccc3F)cc2)[C@@H](CO)N1C(=O)C1CCC1,0,3
CC(=O)N1CCCCN2[C@H](CO)[C@@H](c3ccc(-c4ccncc4)cc3)[C@H]2C1,29,7
C[C@H](CO)N1C[C@H](C)[C@H](CN(C)C(=O)C2CCC2)Oc2ncc(-c3cccnc3)cc2C1=O,11,9
COCC#Cc1ccc2c(c1)O[C@@H](CN(C)S(=O)(=O)c1cccc(OC)c1)[C@@H](C)CN([C@H](C)CO)S2(=O)=O,15,2
CCC(=O)Nc1ccc2c(c1)C(=O)N(C)[C@H]1CC[C@@H](CC(=O)NCc3ccc(OC)cc3)O[C@@H]1CO2,0,-3
N#C[C@@H]1[C@H](c2ccc(C#Cc3ccccc3F)cc2)[C@@H](CO)N1C(=O)C1CCCC1,-18,-16
Cc1ccc(S(=O)(=O)Nc2cccc3c2O[C@H](CN(C)S(=O)(=O)c2cccs2)[C@H](C)CN([C@H](C)CO)C3=O)cc1,-9,-4
CCCC#Cc1cnc2c(c1)C(=O)N([C@@H](C)CO)C[C@@H](C)[C@H](CN(C)C(=O)Nc1ccc(OC)cc1)O2,7,-1
CO[C@H]1CC[C@@H]2CCN(C)C(=O)C[C@H](c3ccccc3)CN(C)C(=O)c3cccc(C#N)c3OC[C@H]1O2,-3,-9
C/C=C/c1ccc([C@@H]2[C@@H](CO)N(C(C)=O)[C@H]2CNC(=O)CC2CC2)cc1,0,1
COC(=O)C[C@@H]1C[C@H]2c3cc(NC(=O)Nc4ccccc4)ccc3O[C@H]2[C@@H](CO)O1,5,17
O=S(=O)(N[C@H]1CC[C@H](CCn2cc(-c3cccnc3)nn2)O[C@@H]1CO)c1ccc(Cl)cc1,-2,1
C[C@@H]1CN([C@@H](C)CO)C(=O)CCCn2nncc2CO[C@H]1CN(C)C(=O)C1CC1,16,7
O=C(C[C@@H]1CC[C@@H]2[C@H](COC[C@H](O)CN2S(=O)(=O)c2ccc(F)cc2)O1)NCC1CCCCC1,-6,2
O=C(N[C@H]1CC[C@H](CCn2cc(-c3ccccc3F)nn2)O[C@H]1CO)c1ccc2c(c1)OCO2,-6,2
CC(C)NC(=O)Nc1ccc2c(c1)C(=O)N([C@@H](C)CO)C[C@@H](C)[C@@H](CN(C)C(=O)c1ccncc1)OCCCC[C@H](C)O2,30,17
C[C@@H]1CN([C@@H](C)CO)C(=O)c2cc(NC(=O)Nc3ccccc3)ccc2O[C@H]1CN(C)C(=O)Nc1cccc2ccccc12,22,27
CCCC(=O)Nc1ccc2c(c1)C(=O)N(C)C[C@@H](OC)[C@H](C)CN(C(=O)c1ccncc1)[C@H](C)CO2,-5,-7
O=C(C[C@@H]1CC[C@H]2[C@@H](COC[C@@H](O)CN2C(=O)Cc2ccccc2)O1)NC1Cc2ccccc2C1,-9,-9
CCC(=O)N1C[C@@H](C)[C@H](OC)CN(C)C(=O)c2cc(NS(=O)(=O)CC)ccc2OC[C@@H]1C,17,12
CN(C)CC(=O)N1[C@@H]2c3ccc(-c4cccnc4)c(=O)n3C[C@H]1[C@H](CO)[C@H]2C(=O)NC1CCCC1,11,2
Cc1ccc(S(=O)(=O)N(C)C[C@@H]2Oc3ccc(NC(=O)Cc4ccccc4)cc3C(=O)N([C@@H](C)CO)C[C@H]2C)cc1,-11,-9
C[C@H](CO)N1C[C@H](C)[C@@H](CN(C)C(=O)Nc2cc(F)ccc2F)Oc2cc(-c3cccc(C#N)c3)ccc2S1(=O)=O,-12,-12
COCC(=O)N1C[C@@H](C)[C@H](OC)CN(C)C(=O)c2cc(NC(=O)Nc3cccc(F)c3)ccc2OC[C@@H]1C,-5,4
Cc1ccc(-c2ccccc2[C@H]2[C@@H](C#N)N(C(=O)c3cccc(F)c3)[C@H]2CO)cc1,-12,-11
O=C(Nc1ccccc1)N1CCCCN2[C@H](C1)[C@H](c1ccc(-c3ccncc3)cc1)[C@@H]2CO,3,-11
CN1CCN(C(=O)C[C@H]2CC[C@H]3[C@H](COc4ccc(NC(=O)C5CCCC5)cc4C(=O)N3C)O2)CC1,10,-3
C[C@H](CO)N1C[C@H](C)[C@@H](CN(C)CC2CC2)Oc2ccc(NC(=O)NC3CCCCC3)cc2CC1=O,-12,-6
O=C(N[C@@H]1CC[C@@H](CCNS(=O)(=O)c2ccccc2)O[C@@H]1CO)c1cccc(F)c1,1,-5
COc1ccc(S(=O)(=O)N(C)C[C@@H]2Oc3c(NC(=O)CCCCCC(=O)Nc4ccccc4N)cccc3C(=O)N([C@H](C)CO)C[C@H]2C)cc1,3,2
COc1ccc2c3c(n(C)c2c1)[C@H](CO)N(C(=O)Cc1ccccn1)CC31CN(CC2CCCCC2)C1,?,nt
O=C(C[C@H]1CC[C@H](NC(=O)C2CC2)[C@@H](CO)O1)NCc1ccccc1Cl,10,7
C[C@@H]1CCCCO[C@H](CN(C)Cc2ccncc2)[C@H](C)CN([C@@H](C)CO)C(=O)c2cc(NS(=O)(=O)c3ccccc3)ccc2O1,-7,-6
O=C(C[C@H]1CC[C@@H]2[C@H](COC[C@H](O)CN2C(=O)Cc2ccccc2)O1)NC1CCC1,5,6
CS(=O)(=O)N1[C@@H](C#N)[C@H](c2ccc(-c3ccccc3F)cc2)[C@@H]1CO,0,-5
O=C(N[C@H]1CC[C@@H](CCn2cc(-c3ccccc3)nn2)O[C@@H]1CO)c1cnccn1,0,3
C[C@@H]1CCCCO[C@H](CN(C)S(=O)(=O)c2ccc(Cl)cc2)[C@@H](C)CN([C@@H](C)CO)C(=O)c2cc(NS(=O)(=O)c3cn(C)cn3)ccc2O1,-2,-1
O=C(N[C@@H]1CC[C@@H](CC(=O)N2CCN(c3ccccc3)CC2)O[C@@H]1CO)c1ccncc1,11,8
O=C(c1cccnc1)N1CC2(C1)[C@@H](c1ccccc1)[C@@H](CO)N2CC1CC1,-8,-6
COCC#Cc1ccc([C@H]2[C@H]3CN(Cc4cncnc4)CCCCN3[C@H]2CO)cc1,26,9
C[C@@H]1CN([C@@H](C)CO)C(=O)c2cc(-c3ccc(C(=O)N(C)C)cc3)cnc2O[C@@H]1CN(C)Cc1ccc(C(=O)O)cc1,26,11
C[C@@H]1CCCCO[C@H](CN(C)C(=O)Nc2ccc(F)cc2)[C@H](C)CN([C@@H](C)CO)C(=O)c2cc(NS(=O)(=O)c3cn(C)cn3)ccc2O1,13,5
C[C@@H]1CN([C@@H](C)CO)C(=O)c2cc(NC(=O)C3CC3)ccc2O[C@H]1CN(C)C(=O)Nc1cccc2ccccc12,15,24
C[C@H]1CN([C@@H](C)CO)C(=O)c2cccc(NS(=O)(=O)c3cccs3)c2O[C@@H]1CN(C)Cc1ccc(C(=O)O)cc1,4,-3
COC(=O)[C@@H]1[C@@H](CO)[C@@H]2Cn3c(ccc(C4=CCCCC4)c3=O)[C@H]1N2C(=O)NC(C)C,-5,4
